Screening results as filed in PubChem.
Vif A3G – inhibitors of Vif binding to APOBEC3G peptide, primary screen, biochemical, TR-FRET, GST-Vif 1-94, biotin-A3G peptide, dose response retest (AID 1117319); TR-FRET GST-Vif / biotin-A3G peptide binding; higher % means a stronger effect; test concentration not given here; strong numbers were not always called active; inhibition, %; hits with a dose series show IC50 in µM; hit rate 0.57% among 260,000;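 active = above the screen mean plus three standard deviations and confirmed in dose response; inconclusive = results disagree or hit not tested in dose response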;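 also: Vif residues 1-94 fused to GST binding biotinylated APOBEC3G peptide 110-148; 0% = full assay without inhibitor and 100% = GST in place of GST-Vif; retest series ran down from 100 µM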
Calb FLC – C. albicans growth inhibition with fluconazole, primary screen, CaCi-2 strain, Alamar Blue fluorescence. C. albicans CaCi-2 (fluconazole-resistant clinical isolate) + fluconazole, 48 h. growth inhibition, % (no concentration beside the values). hit rate 0.57% among 300,000;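 active = most replicates above 75%; inconclusive = exactly half above 75%; inactive = most below 75%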;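 also: all wells also contain fluconazole at 8 µg/ml as a sub-toxic cotreatment; 0% = median of DMSO wells and 100% = median of geldanamycin control wells; wells of about 8 µL received 7.5 nL stock; the first replicate is given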
AF4-AF9 inh – inhibitors of AF4 peptide binding to AF9, primary screen, biochemical, AlphaScreen, biotin-AF4 peptide, FLAG-AF9, single point. Protein AF-9 (Homo sapiens), P42568. inhibition, % at 10 µM. hit rate 0.47% among 350,000. AID 651704, 2012;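 active = every replicate reaching a set inhibition limit, whatever the replicate mean, cut at about 25% in these data; inconclusive = mean inhibition reaches that limit but some replicates miss it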;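 also: 0% = plate neutral control median and 100% = total signal loss; the record names both 10 and 1 µM as test concentration; the first replicate is given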
Target sequence (P42568 whole entry, looked up): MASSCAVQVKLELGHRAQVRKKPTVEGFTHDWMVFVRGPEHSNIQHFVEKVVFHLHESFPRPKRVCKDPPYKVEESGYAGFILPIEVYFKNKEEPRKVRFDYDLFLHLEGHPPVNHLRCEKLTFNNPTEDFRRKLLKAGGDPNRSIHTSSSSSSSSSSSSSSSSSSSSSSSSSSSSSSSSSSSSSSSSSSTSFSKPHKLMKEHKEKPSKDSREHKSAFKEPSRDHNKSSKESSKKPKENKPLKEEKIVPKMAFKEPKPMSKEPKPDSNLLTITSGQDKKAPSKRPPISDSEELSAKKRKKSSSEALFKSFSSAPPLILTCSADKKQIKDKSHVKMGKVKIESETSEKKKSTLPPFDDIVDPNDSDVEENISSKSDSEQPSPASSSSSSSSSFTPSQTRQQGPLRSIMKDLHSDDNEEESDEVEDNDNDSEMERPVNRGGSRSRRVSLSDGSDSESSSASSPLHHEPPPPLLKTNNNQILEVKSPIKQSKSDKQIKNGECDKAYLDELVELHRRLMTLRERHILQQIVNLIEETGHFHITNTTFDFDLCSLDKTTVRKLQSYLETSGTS
Ecoli rRNA inh – reduced GFP signal of wild-type E. coli, primary screen, bacterial rRNA inhibitor project, GFP/RFP fluorescence, OD600, single point; GFP signal change (wild-type ribosome), % (test concentration not listed); hit rate 1.6% among 350,000; E. coli WT GFP vs humanized-ribosome RFP mutants, 24 h; stronger effect = lower value; DMSO median 0, no signal -100;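 active = significant combined selectivity score with lowered wild-type GFP, culture density cut under 30%, mutant RFP and density less affected; inactive = any of these conditions unmet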; also: one replicate is shown; some compounds called inactive have numbers as strong as hits
RanGTP-Imp inh – inhibitors of RanGTP-importin-beta interaction, primary screen, biochemical, FRET, CFP-Ran, YFP-importin-beta, homogeneous; cell-free CFP-Ran/YFP-importin-beta FRET ratio; inhibition, % (test concentration not listed); hit rate 1.1% among 300,000;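 active = most replicates above 15%; inconclusive = exactly half above 15%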;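 also: 0% = DMSO wells and 100% = Ran loaded with GDP instead of GTP; wells of about 40 µL received 100 nL stock; the first replicate is given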
A1 inh – caspase 3/7 activation in MEF A1-2A-BIM cells, primary screen, A1 inhibitor project, cell-based, luminescence, HTS | Caspase-Glo 3/7 luminescence, 3 h; percent of clofoctol response, vehicle zero | caspase activation, % (concentration not given with the values) | hit rate 0.066% among 330,000 | AID 2462, 2010;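 active = over half of replicate activation scores above 10%, or exactly half above 10 with the replicate mean above 10; inconclusive = replicate mean below 10 yet half the replicates above 10; inactive = over half of replicates below 10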;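 also: wells of about 30 µL received 50 nL stock; many hits fall short of the cut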
Beta apoptosis – inhibitors of cytokine-induced beta cell apoptosis, primary screen, luminescence | hit rate 0.8% among 300,000 | protection from apoptosis, % (no concentration beside the values) | AID 435005, 2010 | INS-1E cytokine-induced death, ATP luminescence, 48 h; percent of positive-control rescue, neutral wells zero;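 active = all replicates at 75% or more, or half of them and the mean; inconclusive = half reach 75% but not the mean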;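 also: 0% = cytokine-treated negative control wells and 100% = positive control rescue; higher means more ATP so stronger rescue from cytokine killing; wells of about 40 µL received 100 nL stock; the first replicate is given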
T cruzi inh – inhibitors of intracellular T. cruzi growth, primary screen, luminescence, NIH3T3 host cells. T. cruzi beta-gal in NIH3T3, 90 h. inhibition, % (test concentration not listed). hit rate 1.4% among 300,000. AID 1885, 2009;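 active = mean inhibition across valid replicates above about 55%, limit read from the data; inconclusive = mean below that limit but half or more replicates reach it; inactive = mean below it, under half of replicates reach it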;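 also: signal also drops with host cell toxicity which is not excluded here; 0% = plate median of DMSO wells and 100% = zero luminescence signal; higher percent means less beta-gal luminescence so fewer parasites; stock transfer was 50 nL into about 50 µL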
Ecoli rRNA inh OD600 – recorded beside Ecoli rRNA inh, whose call it bears; OD600 change, %; measured here: OD600 growth;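 optical density of the mix in the first replicate; 0 = DMSO median and -100 = no signal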
Ecoli rRNA inh RFP – further read-out of Ecoli rRNA inh, marked with its call; RFP signal change, %; measured here: RFP humanized mutant strains;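 first replicate; 0 = DMSO median and -100 = no signal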
* marks the source's active call; other numbers are inactive results. Only part of the results is shown; the hit share may differ from the screen's.

`COc1cccc(C(=O)NC2CC3CCCC(C2)N3S(=O)(=O)c2ccccc2)c1` (stereo not given) gave Vif A3G 4%, Calb FLC -1, AF4-AF9 inh 6.7, Ecoli rRNA inh -31*, RanGTP-Imp inh -1.6, A1 inh 0.6, Beta apoptosis 10, T cruzi inh 10, Ecoli rRNA inh OD600 -14* and Ecoli rRNA inh RFP -6.1*.
CCN(CC)S(=O)(=O)c1ccc(Cl)c(NC(=O)COc2ccccc2[N+](=O)[O-])c1 was read as Vif A3G 25%, Calb FLC 5, AF4-AF9 inh 4.4, Ecoli rRNA inh 8, RanGTP-Imp inh 6.9, A1 inh 0.4, Beta apoptosis 3, T cruzi inh 3, Ecoli rRNA inh OD600 7 and Ecoli rRNA inh RFP -2.0.
`CCN(C(=O)Cn1nc(C)n2c(cc3cc(C)ccc32)c1=O)c1ccccc1` gave Vif A3G -4%, Calb FLC -11, AF4-AF9 inh 4.4, Ecoli rRNA inh -4, RanGTP-Imp inh 9.1, A1 inh -0.1, Beta apoptosis 10, T cruzi inh 7, Ecoli rRNA inh OD600 4 and Ecoli rRNA inh RFP 0.0.
For COCC(C)OC(=O)/C(C#N)=C\c1coc2ccc(C)cc2c1=O (stereo not given) the results were Vif A3G 4%, AF4-AF9 inh -4.9, Ecoli rRNA inh 1, A1 inh 0.0, Beta apoptosis -3, Ecoli rRNA inh OD600 0 and Ecoli rRNA inh RFP -0.3.
`Cc1cc(=O)[nH]c(N/N=C/c2ccc(-c3ccc(F)cc3)o2)n1` gave Calb FLC 2, AF4-AF9 inh 0.9, Ecoli rRNA inh 3, RanGTP-Imp inh 1.9, A1 inh -5.4, Beta apoptosis 55, T cruzi inh -14, Ecoli rRNA inh OD600 7 and Ecoli rRNA inh RFP -1.9.
O=C(Nc1cc(C(F)(F)F)ccc1Cl)C(NCc1ccccc1)c1ccccc1 (stereo not given) was read as Calb FLC 28, RanGTP-Imp inh 2.8, A1 inh 1.0, Beta apoptosis 0 and T cruzi inh 20.
COc1cc2c(C#CCCO)c(-c3ccsc3)oc(=O)c2cc1OC was read as AF4-AF9 inh -15, Ecoli rRNA inh -8, A1 inh -0.5, Beta apoptosis 26, Ecoli rRNA inh OD600 0 and Ecoli rRNA inh RFP -7.6.
`COc1ccccc1CNC(=O)COC(=O)c1ccc(Cl)nc1` gave Vif A3G -3%, AF4-AF9 inh -3.6, Ecoli rRNA inh 0, A1 inh 0.9, Beta apoptosis -3, Ecoli rRNA inh OD600 -2 and Ecoli rRNA inh RFP -0.1.
COc1ccc(CNC(=O)c2c(F)c(F)c(F)c(F)c2F)cc1 was read as Vif A3G 7%, Calb FLC 0, AF4-AF9 inh 4.1, RanGTP-Imp inh -2.3, A1 inh 1.1, Beta apoptosis -6 and T cruzi inh 5.
Screening O=C(CCn1nnnc1CN1CCOCC1)N1CCC(c2ccccc2Cl)C1 (stereo not given) returned Calb FLC -2, AF4-AF9 inh 1.4, Ecoli rRNA inh -1, RanGTP-Imp inh 0.6, A1 inh -1.0, Beta apoptosis 2, T cruzi inh -9, Ecoli rRNA inh OD600 -5 and Ecoli rRNA inh RFP 2.8.
Screening CSc1ncccc1C(=O)OCC(=O)c1cc(C)n(CC2CCCO2)c1C (stereo not given) returned Vif A3G 19%, Calb FLC -11, AF4-AF9 inh 6.4, Ecoli rRNA inh -12, RanGTP-Imp inh 0.7, A1 inh -7.1, Beta apoptosis -4, T cruzi inh 1, Ecoli rRNA inh OD600 -9 and Ecoli rRNA inh RFP 0.4.
`O=C(N/N=C\c1cccc(F)c1)c1ccc(-c2ccccc2)cc1` gave Calb FLC -8, AF4-AF9 inh -0.6, Ecoli rRNA inh -1, A1 inh -1.1, Beta apoptosis 2, Ecoli rRNA inh OD600 0 and Ecoli rRNA inh RFP -1.3.
Screening Cn1c2c(c(=O)n(C)c1=O)C(c1cc3c(cc1Br)OCO3)CC(=O)N2 (stereo not given) returned Vif A3G inconclusive, Calb FLC -1, AF4-AF9 inh -0.8, Ecoli rRNA inh 11, RanGTP-Imp inh 6.6, A1 inh -0.7, Beta apoptosis -1, T cruzi inh -5, Ecoli rRNA inh OD600 22 and Ecoli rRNA inh RFP 1.8.
For COc1ccc(C(c2c(O)nc[nH]c2=O)c2c(O)nc[nH]c2=O)cc1 the results were Vif A3G 4%, Calb FLC 2, AF4-AF9 inh 0.9, Ecoli rRNA inh 18, RanGTP-Imp inh inconclusive, A1 inh 0.8, Beta apoptosis -10, T cruzi inh 7, Ecoli rRNA inh OD600 -1 and Ecoli rRNA inh RFP -2.5.
For CNC(=S)N/N=C/c1c(C)nn(-c2cccc(Cl)c2)c1Cl the results were Calb FLC inconclusive, AF4-AF9 inh 0.1, Ecoli rRNA inh -1, RanGTP-Imp inh 5.1, A1 inh 1.6, Beta apoptosis 5, T cruzi inh -27, Ecoli rRNA inh OD600 10 and Ecoli rRNA inh RFP -2.2.
CC(C)=C(NC(=O)c1ccccc1)C(=O)Nc1cccc(C(=O)O)c1 was read as Vif A3G -2%, Calb FLC -18, AF4-AF9 inh -0.8, Ecoli rRNA inh 22, RanGTP-Imp inh -0.4, A1 inh -0.7, Beta apoptosis -2, T cruzi inh 1, Ecoli rRNA inh OD600 26 and Ecoli rRNA inh RFP 0.2.
Screening Cc1cccc(C)c1Nc1nnc(SCC(=O)NCc2ccco2)s1 returned Vif A3G -1%, Calb FLC 9, RanGTP-Imp inh 0.6, A1 inh 0.4, Beta apoptosis 1 and T cruzi inh -2.
Cc1ccc(-n2c(CNc3ccc(F)cc3)nnc2SCC(=O)O)cc1 was read as Vif A3G 7%, Calb FLC 0, AF4-AF9 inh -0.5, Ecoli rRNA inh -2, RanGTP-Imp inh 3.3, A1 inh -0.4, T cruzi inh 0, Ecoli rRNA inh OD600 9 and Ecoli rRNA inh RFP -1.6.
`O=C(COc1ccc(Cl)cc1)NCc1nnc(SCC(=O)Nc2ccc3c(c2)OCCO3)o1` gave Vif A3G 26%, Calb FLC 1, RanGTP-Imp inh 0.7, A1 inh 1.5, Beta apoptosis 4 and T cruzi inh 0.
`CN(CC(=O)NC1(C)CCS(=O)(=O)C1)S(=O)(=O)c1ccc(Cl)cc1` (stereo not given) gave Vif A3G 3%, Calb FLC 7, AF4-AF9 inh -6.4, Ecoli rRNA inh -2, RanGTP-Imp inh -1.9, A1 inh -0.4, Beta apoptosis 0, T cruzi inh -3, Ecoli rRNA inh OD600 3 and Ecoli rRNA inh RFP -2.7.
`CCCNC(=O)c1[nH]c(C)c(C(=O)OCC)c1C` gave Calb FLC 7, RanGTP-Imp inh -0.4, A1 inh 0.0, Beta apoptosis -8 and T cruzi inh -3.
`Cc1ccccc1NC(=O)Nc1cc(-c2ccccc2)nn1C` gave Vif A3G 10%, Calb FLC 0, AF4-AF9 inh -2.5, Ecoli rRNA inh -3, RanGTP-Imp inh 0.7, A1 inh -0.3, Beta apoptosis -2, T cruzi inh 23, Ecoli rRNA inh OD600 8 and Ecoli rRNA inh RFP 4.3.
For Cc1cccc2cc(CN(CCN3CCOCC3)C(=O)NCc3ccccc3)c(=O)[nH]c12 the results were Vif A3G 5%, Calb FLC 10, RanGTP-Imp inh 1.5, A1 inh 0.2, Beta apoptosis -9 and T cruzi inh 6.
For O=C(O)c1ccc2c(c1)C(=O)N(CCC1=CCCCC1)C2=O the results were Vif A3G 13%, Calb FLC -4, RanGTP-Imp inh 5.2, A1 inh -1.8, Beta apoptosis -3 and T cruzi inh -9.
For COc1ccc(NC(=O)c2ccccc2F)cc1Cl the results were Vif A3G -2%, Calb FLC 3, RanGTP-Imp inh 0.7, A1 inh 0.4, Beta apoptosis -5 and T cruzi inh -11.
For COc1cccc(CN2C(=O)C(C)N(C(=O)c3c(F)cccc3F)c3ccccc32)c1 (stereo not given) the results were Vif A3G 1%, Calb FLC 8, AF4-AF9 inh 3.6, Ecoli rRNA inh -10, RanGTP-Imp inh -1.4, A1 inh -0.3, Beta apoptosis 14, T cruzi inh 15, Ecoli rRNA inh OD600 -26 and Ecoli rRNA inh RFP -2.0.
For COc1ccc(Cl)cc1Nc1nc(-c2cccnc2)cs1 the results were Vif A3G -5%, Calb FLC 12, AF4-AF9 inh -0.6, Ecoli rRNA inh -17, RanGTP-Imp inh -2.5, A1 inh -5.4, Beta apoptosis -4, T cruzi inh 56*, Ecoli rRNA inh OD600 -5 and Ecoli rRNA inh RFP 2.4.
For CCN(CC)CCNC(=O)c1ccc(N)cc1 the results were Vif A3G -2%, AF4-AF9 inh 1.7, Ecoli rRNA inh 17, RanGTP-Imp inh 0.6, A1 inh -0.4, Beta apoptosis 8, T cruzi inh 0, Ecoli rRNA inh OD600 13 and Ecoli rRNA inh RFP 0.4.
CCN1C(=O)N[C@@H](c2cccc(C(F)(F)F)c2)C(C(C)=O)=C1C was read as Calb FLC 5, AF4-AF9 inh -4.4, Ecoli rRNA inh 8, RanGTP-Imp inh -1.8, A1 inh -0.2, Beta apoptosis -6, T cruzi inh -11, Ecoli rRNA inh OD600 1 and Ecoli rRNA inh RFP -2.3.
For Cc1occc1-c1nnc(SCC(=O)NC(C)(C)C)n1C(C)c1ccccc1 (stereo not given) the results were Vif A3G -7%, Calb FLC -5, RanGTP-Imp inh -4.5, A1 inh 0.0, Beta apoptosis 3 and T cruzi inh 8.
`CN(C1CCCCC1)S(=O)(=O)c1cc2c3c(c1)CCN3C(=O)CC2` gave Vif A3G 9%, Calb FLC 4, AF4-AF9 inh 0.2, Ecoli rRNA inh -2, RanGTP-Imp inh 1.0, A1 inh 0.1, Beta apoptosis 4, T cruzi inh 6, Ecoli rRNA inh OD600 -4 and Ecoli rRNA inh RFP -1.9.
Screening S=C(NCCN1CCCCC1)Nc1ccccc1 returned Vif A3G -4%, Calb FLC -18, AF4-AF9 inh -2.1, Ecoli rRNA inh 13, RanGTP-Imp inh -1.5, A1 inh -0.3, Beta apoptosis 2, T cruzi inh -9, Ecoli rRNA inh OD600 16 and Ecoli rRNA inh RFP 0.6.
For COc1ccc(C(=O)c2c(-c3ccc(OC)cc3)oc3ccccc23)cc1 the results were AF4-AF9 inh -14, Ecoli rRNA inh 10, A1 inh 0.6, Beta apoptosis 0, Ecoli rRNA inh OD600 10 and Ecoli rRNA inh RFP 0.7.
Screening C/C(=C/c1ccccc1)C(=O)N1CCN(c2ccccc2F)CC1 returned Calb FLC 4, AF4-AF9 inh 2.7, Ecoli rRNA inh -17, RanGTP-Imp inh -0.7, A1 inh 0.6, Beta apoptosis -2, T cruzi inh 10, Ecoli rRNA inh OD600 -24 and Ecoli rRNA inh RFP -2.2.
